Screening data as filed in PubChem BioAssay.
PKD1 kinase inh: blocks activity of human protein kinase D1; Q15139; PKD1 kinase fluorescence polarization assay; inhibition, %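 (about 10 µM by stock and volumes)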; 0.056% of 200,000 active;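 active means inhibition of 50% or more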;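 further: controls were vehicle for no effect and a reference inhibitor for full effect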
HSV replic up: increases HSV replication in cells | AID 1956 | maximum fold increase | 0.005% of 220,000 active | HSV replication augmentation in cells, fold increase;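 active means peak rise of 1.5-fold or more in the series; tested in PC3 cells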;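 further: first round at 10 µM; read as green reporter fluorescence; hits show the peak of a series up to 25 µM; 1 = signal of infected wells without compound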
Insulin prom inh: TRM-6 insulin promoter activity inhibition | 0.9% of 130,000 active | inhibition, % at 2 µM | AID 1273 | TRM-6 cells (human fetal islet line), insulin promoter-eGFP reporter, imaging; reporter expression induced with tamoxifen;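 active means inhibition above the mean plus 3 SD, with well images judged a real hit on visual review, cut at about 60% in these data, passing the limit was not always enough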
GALR2 agonist: GALR2 (human) receptor agonism | 0.48% of 140,000 active | activation, %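 (tested at 5 µM)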 | GALR2-expressing cells, agonist activation read-out | AID 803;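 active means above mean plus 3 SD of all compounds, about 5% in these data, not always enough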;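 further: 0% = vehicle buffer wells and 100% = reference agonist at full effect; tested in CHO reporter cells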
Target sequence (O43603 whole entry, looked up): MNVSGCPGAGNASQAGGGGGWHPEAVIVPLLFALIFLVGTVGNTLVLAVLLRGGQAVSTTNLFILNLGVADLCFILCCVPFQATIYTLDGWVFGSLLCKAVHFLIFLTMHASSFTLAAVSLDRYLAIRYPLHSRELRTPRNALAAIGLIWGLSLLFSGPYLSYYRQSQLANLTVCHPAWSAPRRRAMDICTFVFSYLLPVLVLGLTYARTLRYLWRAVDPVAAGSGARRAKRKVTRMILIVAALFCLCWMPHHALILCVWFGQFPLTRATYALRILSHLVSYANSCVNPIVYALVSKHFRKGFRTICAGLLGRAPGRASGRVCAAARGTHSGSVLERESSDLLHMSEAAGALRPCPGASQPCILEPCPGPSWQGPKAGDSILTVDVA
RGS16-Gao HTS: regulators of human RGS16-Galphao interaction. 0.38% of 220,000 active. binding response (% of control), % at 10 µM. bead-based flow cytometry RGS16-Galphao binding, fluorescence; actives lie on both sides. AID 1441. O15492+P09471;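 active means below 25% or above 175%, edge rows of some plates excepted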;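 further: Galphao activated by GDP with aluminum fluoride before binding; 100% = wells without compound and 0% = beads without RGS; some results beyond the cut were filed as inactive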
Target sequence (O15492 whole entry, looked up): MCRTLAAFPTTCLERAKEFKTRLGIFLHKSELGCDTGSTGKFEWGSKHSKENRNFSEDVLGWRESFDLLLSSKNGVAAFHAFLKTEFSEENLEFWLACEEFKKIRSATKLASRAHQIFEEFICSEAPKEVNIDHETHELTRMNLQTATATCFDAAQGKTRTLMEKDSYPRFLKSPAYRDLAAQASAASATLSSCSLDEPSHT
Target sequence (P09471 whole entry, looked up): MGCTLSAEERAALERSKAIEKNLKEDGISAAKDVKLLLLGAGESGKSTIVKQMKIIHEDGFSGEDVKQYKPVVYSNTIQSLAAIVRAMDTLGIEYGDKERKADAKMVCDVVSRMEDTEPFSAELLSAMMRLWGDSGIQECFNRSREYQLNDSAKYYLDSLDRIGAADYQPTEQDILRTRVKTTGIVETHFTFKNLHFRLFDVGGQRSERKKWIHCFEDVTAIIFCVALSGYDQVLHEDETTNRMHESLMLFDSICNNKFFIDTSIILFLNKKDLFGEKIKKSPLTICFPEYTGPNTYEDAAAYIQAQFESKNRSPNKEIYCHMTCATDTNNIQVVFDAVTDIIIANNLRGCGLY
Insulin prom inh cell count: second read-out of Insulin prom inh, no call of its own (marks repeat the call); normalized cell count, %; measured here: cell count, toxicity; reference of the scale not given here;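 cells exposed to compound for 48 h; stained nuclei by imaging scaled within each plate; lower means fewer cells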
HSV replic up primary fold: second read-out of HSV replic up, no call of its own (marks repeat the call); fold increase; compound at 10 µM; measured here: primary screen fold increase 10 uM; tested in PC3 cells;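 GFP signal in the first replicate; 1 = infected wells without compound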
An asterisk follows results filed as active; i = inactive; . = not tested or not shown; & = joins results of further samples.

compound	PKD1 kinase inh	HSV replic up	HSV replic up primary fold	Insulin prom inh	Insulin prom inh cell count	GALR2 agonist	RGS16-Gao HTS
COCCSc1nnc(NC(=O)Cc2cccs2)s1	0	i	0.86	18	85	-3.7	103
COCCn1c(CCC(=O)O)ccc1-c1cccs1	1	i	1.1	-35	107	.	99
Cc1ccc(C)c(NC(=O)c2ccc3c(c2)N(Cc2ccc(F)cc2)C(=O)CS3=O)c1 (configuration not stated)	-7	i	0.94	.	.	-1.2	105
CC(C)c1ccc(Nc2nnc(SCC(=O)Nc3ncc(S(=O)(=O)c4ccc([N+](=O)[O-])cc4)s3)s2)cc1	1	i	0.94	.	.	.	99
Cc1cccc(-c2ncc(CN3CCN(C4CCCC4)C(CCO)C3)cn2)c1 (configuration not stated)	1	i	0.93	29	142	.	104
CCOC(=O)C1=C(C)OC(N)=C(C#N)C1c1cc(OC)c2c(c1)OCO2 (configuration not stated)	-4	i	0.99	-20	153	1.1	100
CCc1ccc(NC(=O)c2ccnc(C(C)(C)C)c2)cc1	1	i	0.84	24	150	1.0	107
COc1ccc(C2=NOC(C)(c3nnc(-c4ccc(F)cc4)o3)C2)cc1 (configuration not stated)	.	i	0.98	.	.	.	95
NC(=O)C1(N2CCCCC2)CCN(C2CC(=O)NC2=O)CC1 (configuration not stated)	5	i	0.98	i	47	-1.5	102
Cc1ccc(Cl)cc1NC(=O)Nc1cccs1	-6	i	0.93	33	141	.	103

Other entries
compound	PKD1 kinase inh	HSV replic up	HSV replic up primary fold	Insulin prom inh	Insulin prom inh cell count	GALR2 agonist	RGS16-Gao HTS
COC(=O)Nc1ccc(S(=O)(=O)N2CCN(CCN3C(=O)C4C5C=CC(C5)C4C3=O)CC2)cc1 (configuration not stated)	4	i	0.87	.	.	-0.1	101
CCOC(=O)c1c(O)cc(C)[nH]c1=O	.	i	0.9&0.9	.	.	.	98&91
CCC(=O)Nc1nc(-c2ccccc2)ns1	1	i	0.85	24	82	-0.7	106
CC1(C)S[C@@H]2[C@H](NC(=O)[C@H](N)c3ccc(O)cc3)C(=O)N2[C@H]1C(=O)O	6	i	0.7	10	88	-0.6	132
Cc1ccccc1N=Nc1c(C)[nH]n(C(N)=S)c1=O	-2	i	1	9	107	-3.2	99
O=C(c1ccc(F)cc1F)N1CCCN(c2nc(-c3ccccc3)ns2)CC1	.	i	0.93	.	.	.	102
COC(=O)c1sc(NC(=O)c2csc3c2CCCC3)nc1C	3	i	0.92	33	86	-0.1	88
O=C(O)CN1CCN(Cc2ccccc2)C1=O	9	i	0.96	.	.	-1.4	106
COc1ccc(C(=O)N[C@H](C(=O)OCc2cc(=O)oc3cc(C)ccc23)C(C)C)cc1	3	i	1	6	35	-0.7	108
CCOC(=O)C(NC(=O)CC(C)C)(Nc1cc(C)on1)C(F)(F)F (configuration not stated)	-4	i	0.78	-155	91	-0.2	104

Remaining list, next part.
compound	PKD1 kinase inh	HSV replic up	HSV replic up primary fold	Insulin prom inh	Insulin prom inh cell count	GALR2 agonist	RGS16-Gao HTS
N=C1c2ccccc2CN1c1ccc(N2CCOCC2)c(S(=O)(=O)Nc2ccc(Cl)cc2)c1	.	i	0.88	.	.	.	94
Cc1ccc(/C=C/C(=O)NCCCc2ccccc2)cc1	3	i	0.99	.	.	-2.0	86
CC(C)c1nc2sc3c(c2c(=O)n1N)CC(C)(C)OC3	-7	i	1	.	.	.	94
CCc1nnc(NS(=O)(=O)c2ccc(NC(=O)/C=C/c3ccc(OC)cc3OC)cc2)s1	11	i	0.76	-3	107	0.1	105
Cc1cccc(-n2c(Cc3ccccc3)nnc2SCc2ccc([N+](=O)[O-])cc2)c1	-3	i	0.93	-55	114	0.7	108
O=C(NN1C(=O)c2ccccc2NC1c1ccccn1)c1ccc(Br)cc1 (configuration not stated)	3	i	0.89	36	150	-3.4	104
O=C1CN(C(=O)COC(=O)C2CCN(S(=O)(=O)c3ccccc3C(F)(F)F)CC2)c2ccccc2N1	-2	i	0.93	-11	126	-2.6	93
COc1cc(OC)cc(N2CC(C)(C)C2=O)c1	-5	i	0.86	0	87	.	104
CN(C)CCOc1ccc(C(C)(C)c2ccccc2)cc1	-2	i	0.92	.	.	.	102
O=C(CCc1ccc(S(=O)(=O)NC2CCCCC2)cc1)N(Cc1ccccc1)Cc1ccccc1	2	i	1.1	-23	91	-0.7	100

Further compounds follow:
compound	PKD1 kinase inh	HSV replic up	HSV replic up primary fold	Insulin prom inh	Insulin prom inh cell count	GALR2 agonist	RGS16-Gao HTS
CCOC(=O)c1cc2sccc2n1CC(=O)Nc1ccc(OC)cc1	-5	i	0.86	3	119	-1.7	100
c1cncc(-c2nnc3sc(C4CCCCC4)nn23)c1	-35	i	0.88	7	154	-0.1	103
C/C(=N\NC(=O)c1cc(C)nc2ccccc12)c1cccs1	.	i	1.1	.	.	.	102
CCOC(=O)N1CCN(C(=O)C2CCN(S(=O)(=O)CC)CC2)CC1	-13	i	0.92	.	.	-3.1	104
CC(CCc1ccccc1)NC(=O)Cc1cccs1 (configuration not stated)	-2	i	1	.	.	.	103
COc1cccc(NC(=O)COC(=O)Cc2ccc(Br)cc2)c1	0	i	1.2	0	182	.	93
COc1cc(C(=O)N2CCN(C(=O)c3ccccc3)CC2)cc(OC)c1OC	-14	i	1	.	.	-1.2	103
CCOc1ccccc1N(CC(=O)Nc1ccc2c(c1)OCCO2)S(C)(=O)=O	6	i	1.1	82*	68*	-1.8	104
C/C(N)=C(/C#N)C(=O)CSc1nc2ccccc2[nH]1	-1	i	0.86	38	47	-1.6	103
COc1ccc(CNCCC(c2ccc(F)cc2)c2ccc(OC)cc2)cc1 (configuration not stated)	-10	i	0.48	-34	88	-0.1	96

Laid out differently: results already given
Second line of a record: PKD1 kinase inh	HSV replic up	HSV replic up primary fold	Insulin prom inh	Insulin prom inh cell count	GALR2 agonist	RGS16-Gao HTS
- O=C1CN(C(=O)COC(=O)C2CCN(S(=O)(=O)c3ccccc3C(F)(F)F)CC2)c2ccccc2N1
 : -2	i	0.93	-11	126	-2.6	93
- COc1cc(OC)cc(N2CC(C)(C)C2=O)c1
 : -5	i	0.86	0	87	.	104
- CN(C)CCOc1ccc(C(C)(C)c2ccccc2)cc1
 : -2	i	0.92	.	.	.	102
- O=C(CCc1ccc(S(=O)(=O)NC2CCCCC2)cc1)N(Cc1ccccc1)Cc1ccccc1
 : 2	i	1.1	-23	91	-0.7	100

(more compounds)
Compound | PKD1 kinase inh | HSV replic up | HSV replic up primary fold | Insulin prom inh | Insulin prom inh cell count | GALR2 agonist | RGS16-Gao HTS
CCCCn1c(SCC(=O)N2CC(C)CC(C)C2)nc2cc(S(N)(=O)=O)ccc21 (configuration not stated) | -14 | i | 0.81 | 14 | 82 | -0.4 | 94
CSc1nc(Sc2ccccc2)c2ccccc2n1 | 1 | i | 0.98 | -3 | 114 | -1.5 | 100
O=S(=O)(Nc1cccc(CCc2ccccn2)c1)c1cc(Cl)ccc1Cl | . | i | 1.5 | . | . | . | 96
CCOc1ccc(OCCSc2nc(C)cc(=O)[nH]2)cc1 | -3 | i | 0.94 | . | . | -0.7 | 103
Cc1[nH]c2ccccc2c1/C=C(\C#N)C(=O)NCC1CCCO1 (configuration not stated) | 2 | i | 0.96 | . | . | . | 101
Cc1cc(Br)c2[nH]c3c(c2c1)CCCC3=O | 6 | i | 1 | -41 | 140 | -0.3 | 102
COc1cc(C(=O)Nc2cc(-c3nc4cc(C)ccc4o3)ccc2C)cc(OC)c1OC | -4 | i | 0.87 | 50 | 86 | -2.4 | 102
CCOc1ccc2c(C)cc(=O)oc2c1OCC | -4 | i | 0.88 | -19 | 107 | -1.4 | 99

Next records follow:
Compound | PKD1 kinase inh | HSV replic up | HSV replic up primary fold | Insulin prom inh | Insulin prom inh cell count | GALR2 agonist | RGS16-Gao HTS
NC(=O)c1ccc(N2CCC(C(N)=O)CC2)c([N+](=O)[O-])c1 | . | i | 0.92 | . | . | . | 66
CCOC(=O)c1c(N)sc(-c2ccccc2)c1C | -6 | i | 0.86 | 0 | 75 | -2.4 | 110
COCCn1nnnc1C(c1ccccn1)N1CCN(c2cccc(C)c2C)CC1 (configuration not stated) | -11 | i | 0.92 | -317 | 44 | -3.1 | 141
CS(=O)(=O)c1ccc2nc(NC(=O)c3ccc(NS(=O)(=O)c4cccc([N+](=O)[O-])c4)cc3)sc2c1 | . | i | 0.87 | . | . | . | 106
CC(C)CC(COCc1ccc(Cl)cc1)N1CCN(C(=O)c2ccc(Cl)cc2Cl)CCC1=O (configuration not stated) | -4 | i | 0.82 | -55 | 82 | -1.1 | 69
Cc1ccccc1NCc1ccc(O)c2ncccc12 | -1 | i | 0.91 | -156 | 54 | -0.3 | 79
O=C(NCc1csc(-c2cccs2)n1)C1CC1 | . | i | 1.1 | . | . | . | 99
Cc1c(C#N)c(N=CN(C)C)c(C(=O)c2ccc(Br)cc2)n1-c1ccccc1 | -9 | i | 0.92 | 8 | 52 | -2.6 | 101

Additional results
Compound | PKD1 kinase inh | HSV replic up | HSV replic up primary fold | Insulin prom inh | Insulin prom inh cell count | GALR2 agonist | RGS16-Gao HTS
O=C(Nc1ccc(F)cc1)OCCOc1ccc([N+](=O)[O-])cc1 | . | i | 1 | . | . | . | 98
Cc1ccccc1NS(=O)(=O)c1ccc2c(c1)n(C)c(=O)n2C | -5 | i | 1 | . | . | . | 128
Cc1ccc(N(CC(=O)N/N=C/c2ccc(OCC(N)=O)cc2)S(C)(=O)=O)cc1Cl | -1 | i | 0.97 | . | . | . | 100
COc1ccc(CC(=O)Nc2ccc(S(=O)(=O)Nc3cc(C)on3)cc2)cc1OC | -4 | i | 0.93 | -15 | 165 | -1.4 | 107
O=C(CN1CCN(CC(=O)Nc2ccccc2C(F)(F)F)CC1)Nc1ccccc1F | -7 | i | 0.91 | 85* | 117* | -0.4 | 96
CC(C)n1cnc2cc(NCc3ccccn3)ccc21 | -10 | i | 1 | 21 | 132 | -0.4 | 107
COCCN(C(=S)Nc1cc(C)cc(C)c1)C(C)c1cccs1 (configuration not stated) | -1 | i | 0.97 | 11 | 84 | . | 96
CC1(C)CC(CC(=O)Nc2ccccc2[N+](=O)[O-])C(=O)O1 (configuration not stated) | 2 | i | 1 | 0 | 80 | -0.7 | 98

Remaining list, next part:
Compound | PKD1 kinase inh | HSV replic up | HSV replic up primary fold | Insulin prom inh | Insulin prom inh cell count | GALR2 agonist | RGS16-Gao HTS
COc1cccc(/C=N/n2cnc3c(cnn3-c3ccccc3)c2=O)c1 | . | i | 1 | . | . | . | 117
CCn1c(COc2ccc(C)cc2)nnc1SCC(=O)Nc1ccc2c(c1)OCCO2 | -14 | i | 0.87 | -64 | 95 | -1.3 | 103
Cc1ccccc1-c1noc(-c2cccs2)n1 | -1 | i | 0.95 | . | . | -0.8 | 100
CC(=O)NC(NC(=S)Nc1c(C)n(C)n(-c2ccccc2)c1=O)C(Cl)(Cl)Cl (configuration not stated) | 2 | i | 0.98 | . | . | . | 95
COc1cc(C2C(S(=O)(=O)c3ccccc3)CON2C)ccc1OCc1ccc(F)cc1 (configuration not stated) | -2 | i | 0.92 | -10 | 76 | . | 88
COC(=O)C(CSCc1ccccc1)NC(=O)CSc1nc(C)cc(=O)[nH]1 (configuration not stated) | -6 | i | 1.1 | . | . | . | 93
CC(=O)c1ccc(N2CCN(S(=O)(=O)c3cccc(S(=O)(=O)N4CCOCC4)c3)CC2)cc1 | -2 | i | 0.97 | 4 | 90 | -0.8 | 87
COC(=O)[C@H]1C[C@@H]1[C@H](NS(=O)(=O)c1ccc2ccccc2c1)c1ccccc1 | -7 | i | 0.96 | 24 | 120 | -2.5 | 100
Cc1ccc(S(=O)(=O)N(C)C)cc1NC(=S)N1CCc2ccccc21 | 3 | i | 1 | . | . | . | 96
Nc1cc([N+](=O)[O-])ccc1Nc1ccc(O)cc1 | . | i | 0.86 | . | . | . | 90
CCOc1ccc(N(CC(=O)Nc2ccccc2C)S(=O)(=O)c2c(C)[nH]c(=O)[nH]c2=O)cc1 | . | i | 1 | . | . | . | 99
